Screening data as filed in PubChem.
TRPML1 agonist – human mucolipin-1 channel agonism | Q9GZU1 | TRPML1-expressing cells, Ca2+ dye fluorescence, FDSS; host cell line not named in the record; reference of the full effect not given here | activation, % (test concentration not listed) | hit rate 0.12% among 410,000; in the data active = activation above about 50%; inconclusive = about 30% to 50%; inactive = below about 30%; further: 0% is about no effect; the text of the record puts the active cut at 80%
Target sequence (Q9GZU1 whole entry, looked up): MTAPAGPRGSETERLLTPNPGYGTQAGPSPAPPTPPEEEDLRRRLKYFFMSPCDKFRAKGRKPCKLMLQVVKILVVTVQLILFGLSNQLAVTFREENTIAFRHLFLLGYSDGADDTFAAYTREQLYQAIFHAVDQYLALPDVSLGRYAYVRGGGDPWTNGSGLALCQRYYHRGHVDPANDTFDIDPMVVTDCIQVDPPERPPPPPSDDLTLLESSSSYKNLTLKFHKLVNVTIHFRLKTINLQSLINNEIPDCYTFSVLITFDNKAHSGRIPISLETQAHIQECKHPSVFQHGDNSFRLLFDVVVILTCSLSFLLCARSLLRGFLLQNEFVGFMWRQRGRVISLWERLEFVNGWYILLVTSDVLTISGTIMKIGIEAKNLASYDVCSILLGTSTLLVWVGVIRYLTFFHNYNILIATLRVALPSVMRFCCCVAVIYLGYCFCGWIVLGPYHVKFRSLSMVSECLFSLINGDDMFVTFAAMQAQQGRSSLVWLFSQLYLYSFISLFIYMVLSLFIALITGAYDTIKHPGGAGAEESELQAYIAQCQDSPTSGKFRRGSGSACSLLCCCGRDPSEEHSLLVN
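Cells: TRPML1-DL, 1X Tet inducer, ~16 h at 37 degrees C/5% CO2. Dye: ABD Ca8 no-wash + quencher, 45-90 min RT. Read: 10 s baseline, compound add, 110 s agonist phase; 54-4 EC80 (4uM final), 110 s antagonist phase.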
TRPML1 blocker – human mucolipin-1 channel inhibition. Q9GZU1. TRPML1-inducible cells, Ca2+ dye fluorescence, FDSS; hits give low values; inhibition of EC80 agonist-evoked calcium signal. activity change, negative = inhibition, % (concentration not given with the values). hit rate 0.02% among 390,000; in the data active means activity change below about -50%; inconclusive means about -30% to -50%; inactive means above about -30%;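 further: stimulus is agonist 54-4 at its EC80 concentration; on the % scale 0 is the no-effect control and ±100 the full control effect; compound concentration not given in the record; the text of the record puts the active cut at -80%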
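Calcium fluorescence in TRPML1-DL cells induced overnight with Tet: a 110 s read after compound pin addition, then a 110 s antagonist read after challenge with 54-4 at 4 uM final (EC80).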
The depositor's hits bear a star; ? = inconclusive.

SMILES | TRPML1 agonist | TRPML1 blocker
COc1ccc(CCC(=O)NC2CC(=O)N(c3cccc(F)c3)C2)cc1 (stereo not given) | 0.3 | -1
COc1ccc(NC(=O)Cn2c(=O)c3ccccc3n3nncc23)cc1Cl | -0.5 | 2
CCOc1ccccc1NC(=O)CN1C(=O)CC(c2ccc(OC)c(OC)c2)Sc2ccccc21 (stereo not given) | 2.4 | -25
Cc1ccccc1CNC(=O)C1CCN(c2nnc(-n3c(C)ccc3C)s2)CC1 | -0.4 | 28
COc1ccc(NC(=O)CSc2oc(-c3ccc(F)cc3)nc2S(=O)(=O)c2ccc(C)cc2)c(OC)c1 | 0.8 | 6
Cc1ccc(N2CC(c3nc4ccccc4n3CCC3CCCCC3)CC2=O)cc1 (stereo not given) | -0.9 | -2
COc1ccc2oc(=O)c(C(=O)N3CCN(c4ccc(C)cc4)CC3)cc2c1 | -1.3 | 1
Cc1ccc(NC2=C(c3ccc(C(F)(F)F)cc3)C(=O)c3ccccc32)cc1C | -0.7 | 11
CCc1ccc2oc(-c3ccc(NC(=O)c4cc(OC)c(OC)c(OC)c4)cc3)nc2c1 | -0.5 | ?
CCOc1ccc(OCC)c(-n2cnnn2)c1 | 2.0 | -11
COc1ccc(CCNC(=O)c2cc(=O)c3cc(C)cc(C)c3o2)cc1OC | 0.1 | 20
Cc1ccc(NC(=O)CSc2nnc(-c3cc4occc4n3C)n2-c2ccccc2C)c(C)c1 | 3.1 | -1
Cc1nn(CC(=O)NC2CC2)c(=O)c2cc3ccccc3n12 | 0.7 | -24
Cc1ccc(-n2nc(CO)c(C(=O)NCCO)n2)cc1 | 2.3 | -1
CCNC(=O)C1CCN(c2nc3ccccc3nc2C(F)(F)F)CC1 | -0.5 | -8
O=C1CC(c2nc3ccccc3n2CCCOc2ccccc2)CN1c1ccc(F)cc1 (stereo not given) | 1.0 | 33
CCOC(=O)c1c(C)[nH]c(C)c1S(=O)(=O)NCC(=O)N1CCN(c2ccccc2F)CC1 | -1.3 | -11
COc1ccc(NC(=O)COCc2cc(-c3ccco3)on2)cc1 | -1.0 | 61
Cc1oc2ncnc(N3CCCCC3)c2c1C(=O)NCC1CCN(Cc2cccc(F)c2)CC1 | -0.8 | -9
CCN(C(=O)CSc1nc2ccccc2n1CC(=O)Nc1ccccc1C)c1ccccc1 | -0.2 | 0
COc1ccc(NC(=O)c2ccco2)cc1NC(=O)COc1ccc(C)c(C)c1 | -0.3 | 8
CCOc1ccc(CNC(=O)c2ccc3[nH]c(C)c(C)c3c2)cc1OC | 1.9 | -2
Cc1ccc(-c2cc3ncc(C(=O)c4cc([N+](=O)[O-])ccc4O)cn3n2)cc1 | 0.1 | -4
COc1cccc(C(=O)Nc2cc3c(cc2C(=O)c2ccc(C)cc2)OCCO3)c1 | 0.9 | 11
CSc1cccc(NC(=O)C2CCN(S(=O)(=O)c3ccc4[nH]c(=O)ccc4c3)CC2)c1 | 1.3 | -8

14 entries already listed, sorted by count of non-hydrogen atoms, low to high:
SMILES | TRPML1 agonist | TRPML1 blocker
CCOc1ccc(OCC)c(-n2cnnn2)c1 | 2.0 | -11
Cc1nn(CC(=O)NC2CC2)c(=O)c2cc3ccccc3n12 | 0.7 | -24
COc1ccc(NC(=O)COCc2cc(-c3ccco3)on2)cc1 | -1.0 | 61
CCNC(=O)C1CCN(c2nc3ccccc3nc2C(F)(F)F)CC1 | -0.5 | -8
CCOc1ccc(CNC(=O)c2ccc3[nH]c(C)c(C)c3c2)cc1OC | 1.9 | -2
COc1ccc(NC(=O)Cn2c(=O)c3ccccc3n3nncc23)cc1Cl | -0.5 | 2
Cc1ccc(-c2cc3ncc(C(=O)c4cc([N+](=O)[O-])ccc4O)cn3n2)cc1 | 0.1 | -4
Cc1ccc(NC2=C(c3ccc(C(F)(F)F)cc3)C(=O)c3ccccc32)cc1C | -0.7 | 11
COc1cccc(C(=O)Nc2cc3c(cc2C(=O)c2ccc(C)cc2)OCCO3)c1 | 0.9 | 11
O=C1CC(c2nc3ccccc3n2CCCOc2ccccc2)CN1c1ccc(F)cc1 (stereo not given) | 1.0 | 33
CCN(C(=O)CSc1nc2ccccc2n1CC(=O)Nc1ccccc1C)c1ccccc1 | -0.2 | 0
Cc1oc2ncnc(N3CCCCC3)c2c1C(=O)NCC1CCN(Cc2cccc(F)c2)CC1 | -0.8 | -9
CCOc1ccccc1NC(=O)CN1C(=O)CC(c2ccc(OC)c(OC)c2)Sc2ccccc21 (stereo not given) | 2.4 | -25
COc1ccc(NC(=O)CSc2oc(-c3ccc(F)cc3)nc2S(=O)(=O)c2ccc(C)cc2)c(OC)c1 | 0.8 | 6

Further entries
SMILES | TRPML1 agonist | TRPML1 blocker
CCN1C(C(=O)c2ccccc2)=C(OC(=O)COc2ccc(OC)cc2)c2ccccc2S1(=O)=O | -0.3 | 20
COc1cccc(C(=O)Nc2c3c(nn2-c2ccc(C)cc2C)CS(=O)(=O)C3)c1OC | 2.3 | -21
CCCCOc1ccc(CNC(=O)c2ccc3c(c2)N(C)C(=O)C2CCCCN32)cc1 (stereo not given) | 1.0 | 6
COc1ccc(-n2ncc3c(N4CCN(c5cccc(C)c5)C(C)C4)ncnc32)cc1 (stereo not given) | 1.8 | ?
CC1=C(C(=O)Nc2ccc(C)cc2C)C(c2ccc(C(C)C)cc2)n2nc(C(F)(F)F)nc2N1 (stereo not given) | 0.5 | 9
O=C(CSc1nc(=O)[nH]c2c1CCCC2)Nc1cc(C(F)(F)F)ccc1Cl | 0.1 | 0
Cc1ccc(NC(=O)Cn2c(=O)n(-c3ccc(C)cc3)c(=O)c3ccc(C(=O)NCc4ccccc4Cl)cc32)cc1 | 2.3 | 6
CCC(=O)Nc1ccccc1-c1nc2ccccc2n(C(C)C(=O)Nc2ccc(OC)cc2)c1=O (stereo not given) | 4.2 | 33
CCOc1ccccc1NC(=O)Cn1c(=O)n(Cc2ccccc2)c(=O)c2c(C)c(C(=O)N(C)C)sc21 | 0.6 | 22
O=C(NC1CC(=O)N(c2ccc(F)cc2)C1)c1ccc(S(=O)(=O)N2CCCCC2)cc1 (stereo not given) | 0.0 | -20
O=C1C(c2ccc(F)cc2)N(Cc2ccccc2Cl)C(=O)CN1C1CCCCC1 (stereo not given) | 0.9 | 3
CCCN(C(=O)c1cc2c(s1)-c1c(C)cccc1OC2)c1ccc(OCC)cc1 | -0.6 | -14
CCn1c(CN2CCCCC2)nc2cc(NC(=O)COc3cc(C)ccc3C(C)C)ccc21 | -0.1 | 32
COCCNC(=O)CSc1nc(-c2ccccc2)[nH]c1-c1ccc(OC)cc1 | -0.9 | 6
O=C(CCn1cnc2onc(-c3ccc(F)cc3)c2c1=O)N1CCN(c2ccccc2)CC1 | 1.7 | -11
Cc1ccc(C)c(NC(=O)CCc2c(C)nn(-c3ccc(N4CCCC4)nn3)c2C)c1 | -0.6 | -11
CCOc1ccc(NC(=O)c2oc3ccccc3c2NC(=O)COc2cccc(OC)c2)cc1 | -0.8 | 26
CSc1nc(Nc2ccc(C)cc2)c(C#N)c(-c2ccccc2)n1 | -0.5 | 8
CCN(CC)CCCNC(=O)Cn1nc(N2CCN(c3ccccc3OC)CC2)ccc1=O | 0.5 | 15
CCc1cccc(CC)c1NC(=O)c1ccc2c(c1)CCN2S(=O)(=O)c1ccccc1 | -0.3 | 3
COc1ccc2c(c1)cc(CNc1ccc(OC)c(OC)c1)c(=O)n2CC(=O)Nc1ccc(F)cc1 | 3.6 | 7
CN(C(=O)c1ccc2c(c1)N(Cc1ccc(F)cc1)C(=O)c1ccccc1S2(=O)=O)C1CCCCC1 | -0.6 | -4
CCSc1nc(-c2ccccc2)nc2c1Cc1c(CO)cnc(C)c1O2 | -0.5 | -8
Cc1ccc(Nc2nc(C)nc(N)c2S(=O)(=O)c2ccccc2)cc1 | 0.7 | -12
O=C(Cn1c(-c2cccs2)cc2cc(F)ccc21)N1CCN(c2cccc(Cl)c2)CC1 | 0.3 | 8

Continuation.
SMILES | TRPML1 agonist | TRPML1 blocker
CC(C)(C)NC(=O)c1oc2ccccc2c1NC(=O)c1ccccc1F | -0.1 | 0
CCOc1ccc(NC(=O)N(C(C)C)C2CCN(C(C)=O)CC2)cc1 | -0.2 | -15
CCOc1ccccc1NS(=O)(=O)c1c(C(=O)OC)sc2cccc(F)c12 | 2.1 | 19
COc1ccc(-c2ccc(NS(=O)(=O)c3cccc(Cl)c3)cc2)nn1 | 0.2 | -12
CCCNC(=O)CN1C(=O)c2cccnc2Sc2ccccc21 | 1.6 | 14
Cc1cccc(NC(=O)c2sc3ncnc(N(C)C4CCCCC4)c3c2C)c1C | 0.9 | -9
CCn1c(=N)c(C(=O)NC2CCCCC2)cc2c(=O)n3cc(C)ccc3nc21 | -0.3 | 5
CC(C)(C)OC(=O)N1CCC(c2c(C(=O)NCc3ccco3)cnn2-c2ccccc2Cl)CC1 | 0.6 | -1
CCOc1cc(C(=O)Nc2nnc3n2CCS3)cc(OCC)c1OCC | 1.3 | 12
CCCCOc1ccc(C(=O)N(Cc2ccc(C(C)C)cc2)C2CCS(=O)(=O)C2)cc1 (stereo not given) | 2.7 | 50
COc1ccc(NC(=O)Cn2c(=O)n(CCCC(=O)NCc3ccccc3OC)c(=O)c3ccccc32)cc1Cl | 0.1 | -5
CCOc1ccc(NC(=O)c2c(C)oc3nc(C)nc(N4CCOCC4)c23)cc1 | 0.4 | -13
COc1ccc(OC)c(CNC(=O)c2ccc(Sc3ccc(Cl)cc3)c(NC(C)=O)c2)c1 | -0.2 | 3
COc1cc(C2c3c(oc4ccccc4c3=O)C(=O)N2c2ccccn2)cc(OC)c1OC (stereo not given) | 1.5 | -12
Cc1cccc(NC(=O)N2CCC(CN3CCC(C)CC3)CC2)c1C | 0.4 | 28
CCCCOc1ccc(S(=O)(=O)NCc2csc(-c3ccc(OC)cc3)n2)cc1 | 0.4 | -10
CCOC(=O)CSc1nc2ccc(NC(=O)COc3ccc(F)cc3)cc2s1 | 1.4 | -1
O=C1N(Cc2ccccc2Cl)c2ccccc2C1(O)c1c[nH]c2ccccc12 (stereo not given) | -0.5 | 18
Cc1ccc(-c2nc(S(=O)(=O)c3ccc(F)cc3)c(N3CCN(c4ccccc4)CC3)o2)cc1 | -0.7 | 12
O=C(CN1C(=O)CCc2cc(S(=O)(=O)N3CCOCC3)ccc21)NCc1ccccc1Cl | -0.6 | 1
Cc1ccc(CCNC(=O)C(C)n2nc(C)c3c(C)n(-c4ccc(C)cc4)nc3c2=O)cc1 (stereo not given) | 2.0 | 0
COc1cc(OC)c(NC(=O)c2cn(C)c(=O)c3cc(OC)c(OC)cc23)cc1Cl | 1.1 | 33
COc1cccc(NC(=O)N(CCC(C)C)C2CCN(C(C)C)CC2)c1 | -0.4 | 6
Cc1ccc(OC(C)C(=O)N2CCN(CCc3ccccn3)CC2)cc1C (stereo not given) | -0.4 | 6
O=C(CCS(=O)(=O)c1nc(-c2ccc3c(c2)OCO3)cc(C(F)(F)F)n1)Nc1ccccc1F | 2.5 | 30

More compounds.
SMILES | TRPML1 agonist | TRPML1 blocker
CCc1ccc2c(c1)c(=O)c(C(=O)c1ccc(C)cc1)cn2CC(=O)Nc1ccc2c(c1)OCCO2 | 1.4 | -9
O=C(CSc1nc2ccccc2nc1Cc1ccccc1F)Nc1cccc(C(F)(F)F)c1 | -0.6 | -6
Cc1cc(C(F)(F)F)c2c(N)c(C(=O)Nc3c(Cl)cccc3Cl)sc2n1 | 0.1 | -16
Cc1cc(C)cc(NS(=O)(=O)c2ccc(-n3cccn3)cc2)c1 | 2.6 | -7
COc1ccc(CCNC(=O)CCc2c(C)nc3c(c(C)nn3-c3ccc(C)c(C)c3)c2C)c(OC)c1OC | -0.4 | -3
Cc1ccc2cc3cc(C(=O)N4CCN(c5ccccc5)CC4)sc3nc2c1 | -1.0 | 1
Cc1ccc(C)c(N2CCN(C(=O)c3ccc(NC(=O)c4nsc5ccccc45)cc3)CC2)c1 | 0.9 | -11
C[C@H]1C(=O)N(S(=O)(=O)c2ccccc2[N+](=O)[O-])[C@H]1c1ccc(-c2ccccc2)cc1 | 1.0 | -13
CCn1ccc2cc(S(=O)(=O)N3CCCN(C(=O)Nc4ccccc4F)CC3)ccc21 | 2.6 | -2
COC(=O)c1ccc(NC(=O)C(=O)NCCc2csc3nc(-c4ccccc4F)nn23)cc1 | 0.6 | 5
CCOc1ccc(C(CC(=O)Nc2ccc(C(=O)OC)cc2)N2Cc3ccccc3C2=O)cc1OC (stereo not given) | 1.3 | 4
Cc1cc(NC(=O)N2CC=C(c3c[nH]c4ccccc34)CC2)ccc1Br | 1.2 | 19
CN(C)C(=O)c1c(NC(=O)c2ccccc2F)sc2c1CCCC2 | -0.4 | 15
O=C(CC1C(=O)OCCN1Cc1ccccc1)Nc1ccc(F)cc1 (stereo not given) | 1.0 | -12
O=C(CN1C(=O)CSc2ccc(S(=O)(=O)N3CCCCC3)cc21)NCc1ccc(F)cc1Cl | 1.0 | 21
CC(C)Oc1ccc(CNC(=O)C2CCCN(S(=O)(=O)c3ccc4c(ccn4C)c3)C2)cc1 (stereo not given) | 1.3 | 6
CCCOc1ccc(CN2C(=O)C(=O)c3cccc(C)c32)cc1 | 3.5 | 11
Cc1ccc(OC(C)C(=O)N2CCN(CCc3ccncc3)CC2)cc1C (stereo not given) | -0.5 | -4
CC(=O)c1ccc(NC(=O)COc2ccccc2-c2nc(-c3ccc(C)cc3)no2)cc1 | 0.6 | 8

These rows are one share of the data; count on the stated rates, not on these rows.
